Assay outcomes as filed in PubChem.
EPAC2 ant val = Validation qHTS for antagonist of cAMP-regulated guanine nucleotide exchange factor 4 (EPAC2); 16,000 compounds, 1.7% hits; Rap guanine nucleotide exchange factor 4 (Homo sapiens), Q8WZA2; EPAC2 Rap1B BODIPY-GDP exchange, fluorescence; Potency, µM (doses to about 112 µM), without a hit: at the top dose activity, negative = inhibition, hits mostly inhibitors; AID 1645886, 2021; active means well fitted inhibition curve with a large enough effect; inconclusive means small, poorly fitted or top-dose-only effect; inactive means no such curve, though single readings can be large or run the other way;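 further: 100% = activation by cAMP agonist control; nearly all actives have a fitted effect of over 40% in size; the record reuses the description of the EPAC1 agonist screen; inactives centre near -10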
Target sequence (Q8WZA2 whole entry, looked up): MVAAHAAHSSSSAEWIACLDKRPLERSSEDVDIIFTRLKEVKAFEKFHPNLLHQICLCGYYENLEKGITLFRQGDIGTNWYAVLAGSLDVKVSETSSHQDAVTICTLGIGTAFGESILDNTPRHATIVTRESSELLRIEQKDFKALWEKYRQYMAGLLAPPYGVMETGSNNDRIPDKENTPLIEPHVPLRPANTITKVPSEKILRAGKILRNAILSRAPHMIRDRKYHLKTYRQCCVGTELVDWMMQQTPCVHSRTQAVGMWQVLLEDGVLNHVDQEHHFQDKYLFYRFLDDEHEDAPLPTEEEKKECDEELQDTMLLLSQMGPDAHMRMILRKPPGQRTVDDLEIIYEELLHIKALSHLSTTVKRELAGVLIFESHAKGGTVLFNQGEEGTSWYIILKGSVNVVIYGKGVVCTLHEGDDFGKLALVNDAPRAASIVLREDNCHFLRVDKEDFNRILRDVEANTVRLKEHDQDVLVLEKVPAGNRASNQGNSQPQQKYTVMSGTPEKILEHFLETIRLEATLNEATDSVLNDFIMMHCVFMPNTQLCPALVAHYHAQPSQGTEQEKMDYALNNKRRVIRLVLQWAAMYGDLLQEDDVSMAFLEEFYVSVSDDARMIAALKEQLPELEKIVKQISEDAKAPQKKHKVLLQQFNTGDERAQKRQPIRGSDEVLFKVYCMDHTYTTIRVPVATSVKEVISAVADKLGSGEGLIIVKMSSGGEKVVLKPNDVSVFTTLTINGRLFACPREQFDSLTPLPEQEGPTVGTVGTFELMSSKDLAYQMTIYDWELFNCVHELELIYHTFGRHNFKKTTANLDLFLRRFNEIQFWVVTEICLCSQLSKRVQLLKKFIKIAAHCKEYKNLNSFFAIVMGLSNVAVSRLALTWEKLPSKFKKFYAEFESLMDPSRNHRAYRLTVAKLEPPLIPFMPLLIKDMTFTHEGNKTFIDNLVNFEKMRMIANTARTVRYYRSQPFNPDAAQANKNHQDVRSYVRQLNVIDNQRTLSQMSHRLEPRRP
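Fluorescent exchange read-out: 100 nM EPAC2 with 250 nM RAP1B–BODIPY-GDP and 50 uM GDP; BODIPY-GDP release lowers fluorescence. Read at 480/540 nm every 5 min for 30 min at room temperature; normalized to 6.5 mM cAMP.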
Numbers without * were called inactive; ? = inconclusive; & = joins results of further samples; ! = a repeat was not active; [ ] = dose if it differs, or a comment. Potency means the concentration at half of the fitted maximal effect.

SMILES	EPAC2 ant val
O=C(c1cccc(F)c1)N1CCC2(CCN(Cc3nccs3)CC2)CC1	-18.7%
CN1CCC(CN2c3ccccc3Sc3ccccc32)C1 (stereo not given)	6.6%
O=S(=O)(c1ccccc1)N1CCC2(CCN(Cc3ccncc3)CC2)CC1	-27.0%
OC[C@H]1O[C@@H](O[C@@H]2[C@@H](CO)O[C@](O)(CO)[C@H]2O)[C@H](O)[C@@H](O)[C@H]1O	-11.9%&-7.3%
CN(C)c1ccc(-c2cncnc2NCc2cccnc2)cc1	-17.1%
NC12CC3CC(CC(C3)C1)C2	-21.7%
O=C(C[C@H]1C(=O)N(Cc2ccccc2)C[C@@H]1Cc1ccccc1)Nc1ccccc1	?
CC(=C(CCOC(=O)C(C)C)SSC(CCOC(=O)C(C)C)=C(C)N(C=O)Cc1cnc(C)nc1N)N(C=O)Cc1cnc(C)nc1N	-7.4%
CCC(=O)NCc1nc(-c2cccc(NC(=O)c3ccc(C)s3)c2)oc1C	-20.0%
OC1(c2cccnc2)CCN(Cc2ccc3c(c2)CN(Cc2ccc4nsnc4c2)CCO3)CC1	9.0%
C[C@H](O)C(=O)Nc1c(I)c(C(=O)NC(CO)CO)c(I)c(C(=O)NC(CO)CO)c1I	-18.0%[56.6 µM]
COc1ccc2c(c1)c(CC(=O)O)c(C)n2Cc1ccc(Cl)cc1	-24.7%
OC[C@H]1O[C@@H](OCCc2ccc(O)cc2)[C@H](O)[C@@H](O)[C@@H]1O	12.3%
COc1cc(C(O)C(=O)O)ccc1O (stereo not given)	10.0%&-17.1%
O=C1CCC[C@@H]2CC(Nc3ccccc3)C[C@@H]3CCN1[C@H]23 (stereo not given in full)	?
Cc1csc(-c2coc3cc(O[C@@H]4O[C@H](CO)[C@@H](O)[C@@H](O)[C@H]4O)ccc3c2=O)n1	?
CCCCCCOc1ccc(C(=N)N(CCCC)CCCC)c2ccccc12	?
COC(=O)C1CCCCN1Cc1nc(N2CCCCC2)c2cc(OC)c(OC)cc2n1 (stereo not given)	42.1%
CN(C)c1ccc(/C=C/c2ccnc3c(Cl)cccc23)cc1	126.7%[activator]
CC1CCN=C(N)S1 (stereo not given)	?
N=C1N=C(N)c2cc3ccccc3cc21	0.3%[239 µM]
Cn1cc(-c2nc3cnc(Oc4cccc(Cl)c4)nc3n(C3CC3)c2=O)c2ccccc21	-11.3%
CN(C)C=Nc1c(I)cc(I)c(CCC(=O)O)c1I	-4.6%
NS(=O)(=O)c1cccc2c1c([N+](=O)[O-])cc1[nH]c(=O)c(=O)[nH]c12	?
CS(=O)(=O)N1CCC2(CC1)CN(Cc1ccc(C#N)cc1)C2	-18.0%
COc1cccc(/C=C/C(=O)O)c1C(C)C	-9.2%
C=C[C@@H]1c2cc(C)ccc2N(S(=O)(=O)c2ccc(C)cc2)[C@H](c2ccc(OC(C)=O)cc2)C1(C#N)C#N	-2.8%
CN(C)C(=O)c1cc(CNCc2ccc(C(F)(F)F)cc2)cc(NC(=O)c2ccccn2)c1	-31.0%
CC(O)(COc1ccccc1)c1ccc2c(c1)CN(Cc1cccn1-c1ccccn1)CCO2 (stereo not given)	-15.9%
N[C@@H](C(=O)O)c1ccc(P(=O)(O)O)cc1	-21.1%
CC[N+](CC)(CC)CCOc1cccc(OCC[N+](CC)(CC)CC)c1OCC[N+](CC)(CC)CC	-16.5%&-7.3%
O=C(c1cnccn1)N1CCC2(CC1)CN(c1ccccc1)C2	-27.3%
COc1ccc2c(c1)OC(C)CN(CCNC(=O)C1CCOC1)C2 (stereo not given)	-3.3%
CCCCOC(=O)NS(=O)(=O)c1sc(CC(C)C)cc1-c1ccc(Cn2c(CC)nc3c(C)cc(C)nc32)cc1	-26.8%
CC(C)CN1CC2(CCN(C(=O)c3ccco3)CC2)C1	-28.4%
O=c1c(-c2cccc(F)c2)nc2cncnc2n1Cc1ccccc1Cl	27.6%
COC(=O)C1=C(C)NC(C)=C(C(=O)OC(C)(C)CN(C)CCC(c2ccccc2)c2ccccc2)C1c1cccc([N+](=O)[O-])c1 (stereo not given)	-27.9%&-16.3%
CCCC[C@H]1COCCS(=O)(=O)N1Cc1cccc([N+](=O)[O-])c1	?
O=C(Nc1cc(C(=O)Nc2ccc(S(=O)(=O)O)cc2S(=O)(=O)O)cc(C(=O)Nc2ccc(S(=O)(=O)O)cc2S(=O)(=O)O)c1)Nc1cc(C(=O)Nc2ccc(S(=O)(=O)O)cc2S(=O)(=O)O)cc(C(=O)Nc2ccc(S(=O)(=O)O)cc2S(=O)(=O)O)c1	-18.5%
COC(=O)[C@@H]1CCCN1Cc1ccc2c(c1)CN(Cc1nccs1)CCO2	0.3%
C=C(C)C1CC[C@]2(CO)CC[C@@]3(C)[C@H](CCC4[C@@]5(C)CCC(O)C(C)(C)C5CC[C@@]43C)C12 (stereo not given in full)	-13.6%
Cc1ccc(SC[C@H](C)CN2CC[C@H](O)CCC2=O)cc1	-3.0%
CN(C)c1ncnc2ccc(-c3ccccc3C(F)(F)F)cc12	?
CCN(CC)CCNC(=O)c1ccc(NS(C)(=O)=O)cc1	?
COc1ccc2[nH]cc(CCNc3ncnc4ccc(-c5ccc(C(=O)N(C)C)cc5)cc34)c2c1	-29.6%
N[C@@H](CS(=O)O)C(=O)O	3.9%&-7.1%&-5.8%&-8.8%
CCCCC[C@H](O)/C=C/[C@@H]1[C@@H](CC(=O)CCCCC(=O)O)[C@@H](O)C[C@H]1O	-23.7%[11.4 µM]
Cc1c(-c2ccccc2)oc2cc(O)ccc2c1=O	-15.7%
COc1cccc(CN2CCOc3ccc(CN4C[C@@H](C)O[C@@H](C)C4)cc3C2)c1OC	-4.8%
CNc1ncnc2ccc(-c3ccc4c(c3)OCO4)cc12	-10.0%

Next results.
SMILES	EPAC2 ant val
CC(C)NC(=O)c1cn([C@H]2CC[C@@H](NC(=O)/C=C/c3cccs3)CC2)nn1	?
CCCCN1C[C@H](O)[C@@H](O)[C@H](O)[C@H]1CO	8.4%
COc1cccc(-c2nc3cc(SC)ccc3cc2CN(C(=O)c2sccc2C)C2CC2)c1	39.8µM*
N[C@@H](C(=O)N[C@@H]1C(=O)N2C(C(=O)O)=C(CSc3cn[nH]n3)CS[C@H]12)c1ccc(O)cc1	33.1%[activator]
O=c1[nH]ccc2c(O)cccc12	-25.9%
COCc1c(C(=O)NC2CCCCC2)cnn1-c1nccc(-c2cc(C)sc2C)n1	?
Nc1ccc(C(=O)O)cc1	-15.5%&-38.7%
COc1ccc(C(=O)N2CCC[C@@]3(CCN(c4ncccn4)C3)C2)cc1	-18.8%
CN1C(=O)CN2CCc3ccccc3C2c2cc(Cl)ccc21 (stereo not given)	-22.8%
COc1ccc(CN2CCC3(CC2)c2ccccc2[C@@H](NC(=O)c2ccccc2OC)[C@@H]3O)cc1O	4.4%

For convenience, part of the list above.
SMILES	EPAC2 ant val
CC(C)NC(=O)c1cn([C@H]2CC[C@@H](NC(=O)/C=C/c3cccs3)CC2)nn1	?
CCCCN1C[C@H](O)[C@@H](O)[C@H](O)[C@H]1CO	8.4%
COc1cccc(-c2nc3cc(SC)ccc3cc2CN(C(=O)c2sccc2C)C2CC2)c1	39.8µM*

(continued)
SMILES	EPAC2 ant val
C=C[C@H](CC(C)C)N(Cc1ccccc1)S(=O)(=O)N(Cc1ccccc1)[C@H](C=C)CC(C)C	12.5%
COc1cccc(-c2cncnc2NCc2cccs2)c1	-27.7%
COc1cc2c(cc1OC)[C@H](C)N(CC1C(=O)O[C@@H]3C[C@@]4(C)CCC[C@H](C)[C@@]45OC5[C@H]13)CC2 (stereo not given in full)	-9.7%
COCCCNc1ncnc2sc(C(=O)N3CCOCC3)c(C)c12	-11.0%
CC1(C)S[C@@H]2[C@H](NC(=O)C(C(=O)O)c3ccsc3)C(=O)N2[C@H]1C(=O)O (stereo not given in full)	-4.3%
CCCCCCCCCCCCCCSCC(=O)O	?
CC1CCc2cc(F)cc3c(=O)c(C(=O)O)cn1c23 (stereo not given)	-25.9%
COc1cccc(-c2nc(NCc3cnc(C)cn3)c3ccccc3n2)c1	-22.5%
Cc1cc(=O)oc2cc(O)c(O)cc12	-32.9%
C[C@H](NC(CCc1ccccc1)C(=O)O)C(=O)N1CCC[C@H]1C(=O)O (stereo not given in full)	8.6%
Cc1ncc(C[n+]2csc(CCOP(=O)(O)OP(=O)(O)O)c2C)c(N)n1	-17.2%
COc1cc(-c2noc(C)c2C#CC2(N)CCCCC2)cc(OC)c1OC	-19.3%
COCCNC(=O)c1cn(C2CCN(C3CCCC3)CC2)nn1	-12.7%
CCC1CN(CCNC(=O)c2cn3cc(C)ccc3n2)Cc2cc(OC)ccc2O1 (stereo not given)	-14.7%
Cc1ccccc1-c1cc(Nc2ccccc2)ncn1	-23.3%
CC(=O)/C(C)=N/O	-16.7%
CNc1cc(-c2ccccc2C(F)(F)F)ncn1	-15.1%
COc1cc2ncnc(Nc3ccc(F)c(Cl)c3)c2cc1OCCCN1CCOCC1	-8.0%
c1cncc(-c2nc(-n3ccnc3)c3ccccc3n2)c1	-17.7%
CCc1ccc(C(=O)C[N+]2(C)CCOCC2)cc1	-29.5%
Cc1cnc(CNc2ncncc2-c2cccnc2)cn1	-7.8%
COc1ccc(OC)cc1	-16.8%
FC(F)(F)c1cc(CN2CCC3(CCNCC3)CC2)cc(C(F)(F)F)c1	-5.4%
CCCCC/C=C/C=C1/C(=O)C=C[C@@H]1C/C=C\CCCC(=O)O	2.2%[11.4 µM]
CN(C)c1nc(-c2ccccc2C(F)(F)F)nc2ccccc12	-27.7%
Cc1oc(-c2ccccc2NC(=O)c2cccnc2)nc1CNC(=O)c1ccc(N(C)C)cc1	-5.1%
COc1ccccc1CNc1cc(-c2ccc(C(=O)N(C)C)cc2)ncn1	-17.1%
Cc1ccccc1-c1cncnc1N(C)Cc1ccco1	-1.2%
CCCCOC(=O)C(=O)Nc1cccc(-c2nn[nH]n2)c1	10.7%
COc1ccc(-c2nc3cnc(N4CCN(C)CC4)nc3n(Cc3cccs3)c2=O)cc1	38.3%[activator]
Nc1nc(Cl)nc2c1ncn2[C@H]1C[C@H](O)[C@@H](CO)O1	-12.4%&7.7%
CO/N=C(\C(=O)N[C@@H]1C(=O)N2C(C(=O)O)=C(CSC(=O)c3ccco3)CS[C@H]12)c1csc(N)n1	2.5%
CCCCCCCCCCCC[n+]1ccc2ccccc2c1	-1.4%
CCCCc1oc2ccc(NS(C)(=O)=O)cc2c1C(=O)c1ccc(OCCCN(CCCC)CCCC)cc1	-25.6%
CNCc1ccccc1	-8.9%
Cc1nc(C)c(CC(=O)N2CCOc3ccc(CN4CCN(c5ccccn5)CC4)cc3C2)s1	-0.1%
CN(C)c1ccc(/C=C/c2c3ccccc3nc3ccccc23)cc1	-10.7%
COc1ccc(CN2CCOc3c(cc(-c4cccc(OC)n4)cc3OC)C2)c(O)c1	-8.9%
OCc1nc2ccc(Cl)cc2[nH]1	-24.0%
C1CCN2C[C@H]3C[C@H](CN4CCCCC34)C2C1 (stereo not given in full)	0.3%&-4.7%

Part of the list above, with bars between the fields.
canonical_smiles | EPAC2 ant val
Nc1nc(Cl)nc2c1ncn2[C@H]1C[C@H](O)[C@@H](CO)O1 | -12.4%&7.7%
CO/N=C(\C(=O)N[C@@H]1C(=O)N2C(C(=O)O)=C(CSC(=O)c3ccco3)CS[C@H]12)c1csc(N)n1 | 2.5%
CCCCCCCCCCCC[n+]1ccc2ccccc2c1 | -1.4%
CCCCc1oc2ccc(NS(C)(=O)=O)cc2c1C(=O)c1ccc(OCCCN(CCCC)CCCC)cc1 | -25.6%
CNCc1ccccc1 | -8.9%
Cc1nc(C)c(CC(=O)N2CCOc3ccc(CN4CCN(c5ccccn5)CC4)cc3C2)s1 | -0.1%

New compounds follow
SMILES	EPAC2 ant val
C[C@@H](NCc1cc(Br)cc2[nH]c(=O)c(=O)[nH]c12)P(=O)(O)O	-17.3%
COc1ccc(OC)c(C(=O)N2CCOc3ccc(C(C)(O)CN(C)C)cc3C2)c1 (stereo not given)	9.5%
O=C(NCC1CCC2(CCN(Cc3cc4ccccc4o3)CC2)O1)c1ccccc1 (stereo not given)	?
CN(C)c1ncc2nc(CCc3ccccc3)c(=O)n(CCc3ccccc3)c2n1	-3.6%
Clc1ccc(C(c2ccccc2Cl)C(Cl)Cl)cc1 (stereo not given)	14.1µM*!
COc1ccccc1CN1CC2(CCN(C(=O)c3ccncc3)CC2)C1	-17.5%
Cn1cccc1C(=O)N1CCC2(CC1)CCN(c1ccccc1)CC2	-22.4%
CN(C)CCOC(c1ccccc1)c1ccccc1	2.4%&-6.7%&37.8%&-4.4%
O=C(O)CC(O)C(=O)O (stereo not given)	18.3%
N[C@@H](Cc1ccc(O)c(O)c1)C(=O)O	1.0%&-7.0%

Looked up by compound from the list above (2):
SMILES	EPAC2 ant val
N[C@@H](Cc1ccc(O)c(O)c1)C(=O)O	1.0%&-7.0%
Cn1cccc1C(=O)N1CCC2(CC1)CCN(c1ccccc1)CC2	-22.4%

The list goes on.
SMILES	EPAC2 ant val
O=[N+]([O-])c1cccc2c[nH]nc12	-6.4%
CC(=O)OCC(=O)NCCCOc1cccc(CN2CCCCC2)c1	17.7%&3.1%
Cc1cccc(C#Cc2ccccc2)n1	?
CCCC(=O)O[C@]1(C(=O)CO)CC[C@H]2[C@@H]3CCC4=CC(=O)CC[C@]4(C)[C@H]3[C@@H](O)C[C@@]21C	?
N#CCCn1c(=O)cnc2cnc(N3CCNCC3)nc21	-8.4%
CC1OC(OCC2OC(Oc3c(-c4ccc(O)c(O)c4)oc4cc(O)cc(O)c4c3=O)C(O)C(O)C2O)C(O)C(O)C1O (stereo not given)	-8.2%
O=C(NCCN1CCOCC1)c1cnn(-c2ncc3c(n2)-c2ccccc2CC3)c1C1CC1	-24.8%
O=C1C[C@H]2C=CCc3cccc(c32)CN1Cc1ccccc1	?

The list is partial; count on the stated rates, not on these rows.
